HCMV NEC inh = cytomegalovirus nuclear egress complex inhibition. inhibition, % (concentration not given with the values). AID 1918969. actives 0.15% (n = 190,000). HTRF UL50-UL53 interaction, normalized percent inhibition;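 active = both replicates at 50% or more, plus weaker picks with an unusually low signal ratio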;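 note: stock transfer was 100 nL into about 20 µL; 0% = negative control wells and 100% = wells with untagged competitor protein; inactives centre near -12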
Sa growth 42C = blocks Staphylococcus aureus growth; S. aureus RN4220 growth, OD600, 20 h, 42 °C; stronger effect = lower value; relative growth, % (concentration not given with the values); actives 0.53% (n = 170,000); AID 720641;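 active = growth at 42 °C up to 50% and 20 or more points under that at 30 °C, or under 10% at both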;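 note: 300 nL library stock went into each well; scaled to the means of positive and negative controls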
GIV-Gai inh = GIV-Galpha-i interaction inhibition; actives 0.42% (n = 210,000); P08753; Galpha-i3/FITC-GIV peptide fluorescence polarization, 90 min; stronger effect = lower value; scaled: aluminum fluoride 0%, vehicle 100%; percent of control (FP), % (no concentration beside the values); AID 1224905;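 active = replicate mean at 85% of control or lower, very high polarization wells dropped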;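 note: wells of about 15 µL received 100 nL stock; the first replicate is given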
Target sequence (P08753 whole entry, looked up): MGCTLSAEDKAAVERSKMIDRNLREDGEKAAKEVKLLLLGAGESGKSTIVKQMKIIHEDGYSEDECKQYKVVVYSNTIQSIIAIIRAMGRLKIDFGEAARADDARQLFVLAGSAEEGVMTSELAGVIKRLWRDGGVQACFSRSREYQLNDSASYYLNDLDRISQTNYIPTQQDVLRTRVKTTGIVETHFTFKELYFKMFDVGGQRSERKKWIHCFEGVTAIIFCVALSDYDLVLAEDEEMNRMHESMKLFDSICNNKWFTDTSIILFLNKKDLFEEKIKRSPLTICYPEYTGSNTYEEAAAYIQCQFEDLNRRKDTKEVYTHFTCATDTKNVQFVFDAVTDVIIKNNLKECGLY
Sa growth 42C second temp = recorded beside Sa growth 42C, whose call it bears; relative growth, %; measured here: growth at 30 °C;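 optical density after 20 h as mean of two plates; 100% = untreated growth and lower means inhibition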
Numbers without * were called inactive; nt = no result given; & = joins results of further samples.

Preview (6 entries):
SMILES | HCMV NEC inh | Sa growth 42C | Sa growth 42C second temp | GIV-Gai inh
COc1ccc(NC(=O)Nc2cccc(-c3cn4cccnc4n3)c2)cc1 | -10 | 103 | 89 | 105
O=C(CN1CCCCC1)c1c[nH]c2ccccc12 | -15 | nt | nt | 205
CCn1c(C(=O)Nc2ccccc2C(=O)OC)cc2sc(Cl)cc21 | -6 | 97 | 85 | 100
CCOc1cc(/C=C2\N=C(c3ccc(Br)cc3)OC2=O)ccc1OC(C)=O | -32 | nt | nt | 105
COc1cccc(CNC(=O)Cc2c(C)c3c(cc(C)c4c(C)c(C)oc43)oc2=O)c1 | -35 | 113 | 86 | 99
CCn1c(-c2ccccc2)cnc1SCC(=O)c1sc2c(c1C#N)CCCC2 | -10 | 125 | 96 | 109

Main list (from the top)
SMILES | HCMV NEC inh | Sa growth 42C | Sa growth 42C second temp | GIV-Gai inh
COc1ccc(NC(=O)Nc2cccc(-c3cn4cccnc4n3)c2)cc1 | -10 | 103 | 89 | 105
O=C(CN1CCCCC1)c1c[nH]c2ccccc12 | -15 | nt | nt | 205
CCn1c(C(=O)Nc2ccccc2C(=O)OC)cc2sc(Cl)cc21 | -6 | 97 | 85 | 100
CCOc1cc(/C=C2\N=C(c3ccc(Br)cc3)OC2=O)ccc1OC(C)=O | -32 | nt | nt | 105
COc1cccc(CNC(=O)Cc2c(C)c3c(cc(C)c4c(C)c(C)oc43)oc2=O)c1 | -35 | 113 | 86 | 99
CCn1c(-c2ccccc2)cnc1SCC(=O)c1sc2c(c1C#N)CCCC2 | -10 | 125 | 96 | 109
Cc1ccc(NC(C(=O)O)c2ccccc2)cc1 (stereo unspecified) | -10 | 83 | 88 | 102
CCc1ccc(NC(=O)c2cc(S(=O)(=O)NC3CCCCCC3)ccc2F)cc1 | nt | 127 | 86 | 100
CC(C)OC(=O)Cn1nnc(-c2ccccc2)n1 | -16 | 112 | 102 | 102
CCN(C(=O)c1ccc(Br)cc1)c1ccccc1 | -25 | 128 | 96 | 105
Fc1ccc(NC(=S)Nc2cc(C(F)(F)F)ccc2N2CCCC2)cc1Cl | -42 | 82 | 59 | 103
Cc1sc2ncn(CC(=O)N3CCN(c4ccc(F)cc4)CC3)c(=O)c2c1S(=O)(=O)N1CCN(c2ncccn2)CC1 | -25 | 109 | 90 | 103
C=CCSc1ncnc2c1sc1nc(C)cc(C)c12 | 44 | 98 | 93 | 102
CCOC(=O)c1ccc(NC(=O)COCc2cc(-c3ccc4c(c3)OCO4)on2)cc1 | nt | 113 | 91 | 104
Cc1ccc2c(c1)n(Cc1ccc(Cl)cc1)c(=O)c1nc(C(=O)O)nn12 | 8 | nt | nt | 98
CC(C)CCNC(=O)c1cn(C)c2ccc(S(=O)(=O)N3CCC(C)CC3)cc2c1=O | nt | 98 | 95 | 102
O=C(Cn1c(N2CCN(c3ccc(F)cc3)CC2)nc2ccccc21)c1ccccc1 | -12 | 83 | 84 | nt
CN1C(=O)C(O)N(c2ccccc2)C1=O (stereo unspecified) | nt | 79 | 61 | 95
C=CCn1c(SCc2nc3ccccc3[nH]2)nnc1-c1ccco1 | 10 | 106 | 93 | nt
Cc1ccc(Sc2ncccc2NC(=O)Cc2ccccc2)cc1 | -12 | 108 | 94 | 102
COC(=O)c1ccc(COC(=O)COc2ccc(C#N)cc2)o1 | -11 | 81 | 89 | nt
COc1ccc(OC)c(CNC(=O)C2CCN(S(=O)(=O)N3CCCCC3)CC2)c1 | nt | 110 | 86 | 103
O=C1/C(=N/NC(=O)C2COc3ccccc3O2)c2cccc3cccc1c23 (stereo unspecified) | -36 | 25 | 1 | nt
CCc1ccc(-c2nn(-c3ccccc3)c(=S)c3ccccc23)cc1 | -7 | 93 | 84 | nt
Cc1ccc(NC(=S)NCC2CCCO2)cc1 (stereo unspecified) | nt | 99 | 87 | 102
Cc1cc(=O)oc2c3c(ccc12)O/C(=C/C=C/c1ccccc1)C3=O | nt | 85 | 88 | 104
O=C(c1cc(-c2cccnc2)n[nH]1)N1CCCC(C(=O)N2CCN(c3ccccn3)CC2)C1 (stereo unspecified) | -11 | nt | nt | 104
COc1ccc(C)c2sc(NNC(=O)C3=COCCO3)nc12 | -22 | 86 | 91 | 103
CC(=O)Nc1ccccc1OCC(=O)N(C(C)C)C(C)C | 0 | 109 | 94 | nt
COc1ccc(CNC(=S)N(Cc2nnc(-c3ccccc3Cl)o2)C2CC2)cc1 | -8 | 102 | 92 | nt
O=C(CNC(=O)c1ccccc1)OCc1cc(=O)n2ccsc2n1 | -20 | 92 | 90 | 105&101
CN1C(=O)C(=CN2CCc3ccccc32)C(=O)N(C)C1=O | 4 | 106 | 104 | 106
N=C1C(c2nc3ccccc3s2)=C(O)CN1CC1COCCO1 (stereo unspecified) | -8 | nt | nt | 103
Cc1cccc(NC(=O)CCNS(=O)(=O)c2cccc3nonc23)c1C | -62 | 88 | 96 | 106
Cc1nn2c(-c3ccco3)ccnc2c1-c1ccc(Cl)cc1 | -1 | 104 | 91 | 110
Cc1cc(OCCCCCn2ccnc2)cc(C)c1Cl | -28 | -0.9* | -0.6* | 104
O=C(CC1SC(=NC2CCCC2)NC1=O)NCc1ccc(Cl)cc1 (stereo unspecified) | -21 | 85 | 89 | nt
COc1ccc(C2CC(=O)C=C(NCCC(C)C)C2)cc1 (stereo unspecified) | 9 | 99 | 98 | 116
COc1cccc(C(=O)NCc2nc(-c3ccccc3)no2)c1OC | 7 | 103 | 88 | 111
O=C(Nc1cccc(-c2nc3ccccc3c(=O)o2)c1)C1CCCCC1 | nt | 101 | 86 | 97
O=C(O)CSc1nc(-c2ccccc2)cc(=O)[nH]1 | -13 | 103 | 94 | 98
O=C(NC1CCCC1)c1ccc(-n2c(-c3ccccc3)cc3c2CCCC3)cc1 | nt | 91 | 87 | 100
Clc1ccc(C2Nc3ccccc3-c3nc(C4CC4)nn32)cc1 (stereo unspecified) | -12 | 111 | 86 | nt
CCCCCCOc1ccc(C(=O)OCC(=O)Nc2c(C)n[nH]c2C)cc1OC | -11 | 100 | 97 | nt
Cc1nn(S(C)(=O)=O)c(C)c1S(=O)(=O)N1CCC(C)CC1 | -5 | nt | nt | 118
Cc1ccc2c(c1)N(CCCC(=O)NCCN1CCOCC1)C(=O)CO2 | -6 | nt | nt | 104
CC(C)(C)C1=CC(=O)C(C(C)(C)C)=CC1=O | -37 | 92 | 78 | 103
COc1ccc(Br)cc1C(=O)Nc1ccc(NC(=O)c2ccco2)cc1 | 4 | 90 | 88 | 96
CSCCC1Oc2ccccc2C2CC(c3ccccc3O)=NN12 (stereo unspecified) | -28 | 88 | 90 | 106
OC(CN1CCCCC1)CN(c1ccccc1)c1ccccc1 (stereo unspecified) | -34 | 91 | 94 | 107
CCOC(=O)c1sc(NC(=O)CN2C(=O)C3CC=CCC3C2=O)nc1C (stereo unspecified) | -10 | 90 | 93 | nt
NC(=O)C1CCN(C(=O)CCCn2c(=O)c3cccn3c3ccc(Br)cc32)CC1 | -12 | nt | nt | 102
O=C(c1ccc(S(=O)(=O)N2CCCc3ccccc32)s1)N1CCCC1 | -9 | 94 | 89 | 104
Cc1cc(C)c(C#N)c(Sc2ncnc3c2sc2nc(C)cc(C)c23)n1 | -47 | 100 | 90 | 103
c1ccc(-c2nnn3c2nc(N2CCc4ccccc4C2)c2ccccc23)cc1 | -29 | nt | nt | 104
CCn1nnc2c(N3CCN(c4ccccc4Cl)CC3)ncnc21 | -32 | 64 | 66 | 101
CCC(C)NC(=S)N1CCN(C)CC1 (stereo unspecified) | -20 | 103 | 86 | 100
O=C(CN1C(=O)CSC1=O)c1ccccc1 | -13 | 114 | 82 | 102
COc1ccc2nc(SCC(=O)Nc3ccnn3C3CCCC3)[nH]c2c1 | -5 | 101 | 79 | nt
CC(C)(C)OC(=O)N1CCC(N)(C(=O)O)CC1 | nt | 96 | 95 | 111
Later entries
SMILES | HCMV NEC inh | Sa growth 42C | Sa growth 42C second temp | GIV-Gai inh
COc1ccc(NC(=O)C2=C(C)Nc3ncnn3C2c2sccc2C)cc1 (stereo unspecified) | nt | 76 | 90 | 99
Cc1onc(-c2c(F)cccc2Cl)c1C(=O)N=S(C)(C)=O | -10 | 90 | 88 | 103
CC(=O)Nc1ccc(-c2nnc(-c3ccco3)o2)cc1 | -31 | 96 | 80 | 99
Cc1ccc(-c2ccc(SCc3nc(-c4ccc5c(c4)OCO5)no3)nn2)cc1 | -16 | nt | nt | 109
O=C(c1ccc(Nc2ccnc(-c3cccc(F)c3)n2)cc1)N1CCCC1 | -2 | nt | nt | 101
CCOc1ccc(CNC23CN4CN(CN(C4)C2)C3)cc1 | -16 | 108 | 77 | 96
CCN(CC)c1ccc(CN(C(=O)Cc2coc3ccc(C)cc23)C2CCS(=O)(=O)C2)cc1 (stereo unspecified) | -1 | 111 | 91 | 109
CCOc1ccc(CC(=O)NCCc2csc(-c3ccc(C(F)(F)F)cc3)n2)cc1 | nt | 105 | 93 | 98
CC1CCCCC1NC(=O)Nc1ccccc1F (stereo unspecified) | -40 | 106 | 100 | 100
Nc1cc(C(F)(F)F)ccc1-n1cccn1 | -8 | 93 | 95 | nt
CC(C)NC(=O)N1CCCC(c2cccc(C(=O)NCCN3CCCCC3)c2)C1 (stereo unspecified) | -12 | nt | nt | 107
CN(Cc1ccccc1)C(=O)CC1(CC(=O)O)CCCC1 | -9 | 100 | 93 | nt

No new results follow: 5 of the compounds above.
SMILES | HCMV NEC inh | Sa growth 42C | Sa growth 42C second temp | GIV-Gai inh
COc1ccc(NC(=O)C2=C(C)Nc3ncnn3C2c2sccc2C)cc1 (stereo unspecified) | nt | 76 | 90 | 99
Cc1onc(-c2c(F)cccc2Cl)c1C(=O)N=S(C)(C)=O | -10 | 90 | 88 | 103
CC(=O)Nc1ccc(-c2nnc(-c3ccco3)o2)cc1 | -31 | 96 | 80 | 99
Cc1ccc(-c2ccc(SCc3nc(-c4ccc5c(c4)OCO5)no3)nn2)cc1 | -16 | nt | nt | 109
O=C(c1ccc(Nc2ccnc(-c3cccc(F)c3)n2)cc1)N1CCCC1 | -2 | nt | nt | 101

Next entries follow.
SMILES | HCMV NEC inh | Sa growth 42C | Sa growth 42C second temp | GIV-Gai inh
O=C(CCn1c(=O)oc2ccccc21)Oc1cccc(Cl)c1 | 6 | 105 | 111 | 104
Oc1cc(-c2nc3ccccc3o2)c(O)cc1-c1nc2ccccc2o1 | -12 | 106 | 79 | 104
CCC(=O)N1CCc2cc(Br)cc(S(=O)(=O)CCC(=O)N3CCN(c4ccccc4F)CC3)c21 | -12 | 88 | 88 | 102
O=C(Cc1ccc(S(=O)(=O)N2CCCCC2)s1)N1CCc2ccccc21 | -22 | 86 | 94 | nt
NC(=O)c1ccc(NC(=O)CSc2nc3ccccc3o2)cc1 | -17 | nt | nt | 99
CCN(CC)c1ncnc2c1[nH]c1ccc(C)cc12 | nt | 95 | 70 | 97
O=C(Nc1ccnn1C1CCCC1)c1ccc2c(c1)CCC2 | -16 | 89 | 90 | nt
CCN(Cc1ccccc1)c1ncc(NS(=O)(=O)c2ccc(Br)cc2)cc1C(=O)O | -49 | nt | nt | 145
O=S(c1c(F)c(F)c(F)c(F)c1F)c1c(F)c(F)c(F)c(F)c1F | -6 | 0.7* | 0.6* | 103
Cc1ccc(CNC(=O)c2nc(SCc3ccc(F)cc3)ncc2Cl)cc1 | -25 | 106 | 83 | 101
COc1ccc(Cl)cc1N1C(=O)[C@@H]2CCCN2[C@H]1c1cccc(Br)c1 | -15 | nt | nt | 100
COc1ccc(-c2cc(N)nc(N)n2)cc1 | -35 | 72 | 58 | 102
COc1cc(C(=O)NCc2ccccc2)cc(OC)c1OC | nt | 92 | 88 | 106
Fc1ccc(CN2CCc3ccccc3C2)cc1Br | -13 | 94 | 74 | 99
Cc1ccccc1-n1nnnc1Sc1nnnn1-c1ccccc1 | 40* | 56 | 33 | nt
O=c1ccc2nc3ccccc3c(=O)n2[nH]1 | -22 | 94 | 81 | 100
CC(C)CCn1c(=O)c2sccc2n2c(CCCC(=O)NC3CCC(C)CC3)nnc12 (stereo unspecified) | nt | 106 | 81 | 107
CC1(C)Cc2c(c(N3CCOCC3)nc3sc(C(=O)c4ccccc4)c(N)c23)CS1 | -5 | nt | nt | 101
Cc1cc(C)c2c(NC(=O)COc3ccc(Cl)cc3)n[nH]c2n1 | -24 | 76 | 90 | nt
CCCSc1ncc(Cl)c(C(=O)Nc2c(C(=O)c3ccc(F)cc3)oc3ccccc23)n1 | -2 | 90 | 85 | 103
O=C(NCCc1c[nH]c2ccccc12)C1CCN(c2nnc(N3CCCC3=O)s2)CC1 | 2 | 101 | 96 | 111
CC(C)n1c(=O)c2sccc2n2c(=S)sc(-c3ccccc3)c12 | nt | 97 | 89 | 116
COC(=O)c1cccc(CSc2nc3ccccc3[nH]2)c1 | 7 | 94 | 96 | nt
CC(C(=O)N1c2ccccc2C(Nc2ccccc2)CC1C)N1C(=O)c2ccccc2C1=O (stereo unspecified) | 18 | nt | nt | 115
CCN(CC(=O)Nc1ccccc1OC)C(=O)CC1CCCC1 | -16 | 103 | 91 | nt
Cc1cc2c(cc1C)CSC(c1ccc(N(C)CCC#N)cc1)SC2 | -5 | 86 | 89 | 115
Cc1nc2c3c(cccc3n1)C(=O)c1ccccc1-2 | -96 | 26 | 32 | 91
CCN(C(=O)CSc1nnc(-c2ccncc2)o1)c1ccccc1 | -19 | nt | nt | 100
O=[N+]([O-])c1ccc2nc(SCc3nc4sccn4c3Br)[nH]c2c1 | -24 | nt | nt | 102
COc1cccc(-n2c(SCC(=O)c3ccc(Cl)cc3)nc3c([nH]c4ccccc43)c2=O)c1 | nt | 98 | 70 | 100
Cc1[nH]c2ccc(CN3C(=O)c4ccccc4C3=O)cc2c1C | nt | 105 | 87 | 106

High-throughput results from PubChem BioAssay.
